PV pol inh = inhibitors of poliovirus RNA polymerase binding and polymerization. P03300. poliovirus polymerase elongation, fluorescence polarization; active compounds read low. % elongation, % (compound at 16.7 µg/mL). 150,000 compounds, 0.66% hits; in the data active = % elongation below about 90%; also: some results filed as inactive read as strong as hits
Target sequence (P03300 1749-2209 limits assumed): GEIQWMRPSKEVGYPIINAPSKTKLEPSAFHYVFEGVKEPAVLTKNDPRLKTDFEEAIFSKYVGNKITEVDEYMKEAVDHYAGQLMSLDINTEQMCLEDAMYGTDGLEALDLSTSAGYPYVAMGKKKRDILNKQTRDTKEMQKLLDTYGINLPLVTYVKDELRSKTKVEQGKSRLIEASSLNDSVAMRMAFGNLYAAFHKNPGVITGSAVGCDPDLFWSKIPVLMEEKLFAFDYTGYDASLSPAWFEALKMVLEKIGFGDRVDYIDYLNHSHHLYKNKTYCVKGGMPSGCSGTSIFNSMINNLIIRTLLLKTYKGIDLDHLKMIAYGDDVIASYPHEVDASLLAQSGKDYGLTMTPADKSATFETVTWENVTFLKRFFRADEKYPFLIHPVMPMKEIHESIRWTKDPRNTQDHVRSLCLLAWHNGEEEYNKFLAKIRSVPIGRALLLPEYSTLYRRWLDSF
PV pol inh intensity = also measured in PV pol inh; calls as there; % elongation; measured here: total intensity read-out; formula for this scale not given here;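 total fluorescence in place of polarization; lower means less elongation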
The depositor's hits bear a star. These rows are one share of the data, so the mix of outcomes need not match the whole.

Value order: PV pol inh, PV pol inh intensity
1) COc1cc(CN(C(=O)c2ccc(C)cc2)C2CCS(=O)(=O)C2)cc(OC)c1OC (stereo not given)
 : 109, 109
2) CC(C)(C)OC(=O)N1CCC(c2c(C(=O)NCCN3CCOCC3)cnn2-c2ccc(F)cc2F)CC1
 : 108, 108
3) CCC(=O)N1CCc2cc(S(=O)(=O)NC(C(=O)NCCc3ccc(Cl)cc3)C(C)C)ccc21 (stereo not given)
 : 108, 107
4) Cc1ccc(CCNC(=O)c2ccc(CS(=O)(=O)c3ccc(Cl)cc3)o2)cc1
 : 108, 100
5) O=C(c1ccc(CS(=O)c2ccccc2Cl)o1)N1CCN(c2cccc(C(F)(F)F)c2)CC1 (stereo not given)
 : 105, 106
6) CCOC(=O)C1CCN(c2cc3c(cc2NC(=O)c2ccccc2Cl)n(C)c(=O)n3C)CC1
 : 104, 106
7) Cc1ccc(-n2nc(C(=O)Nc3ccc(F)cc3F)c3c4ccccc4n(C)c3c2=O)cc1
 : 104, 107
8) Cc1ccc2c(c1)-c1nc(-c3ccc4c(c3)NC(=O)CO4)cc(-c3ccc(F)cc3)c1CO2
 : 110, 111
9) CC(=O)c1ccc(NC(=O)c2sc(-n3nc(C)c(Cc4ccc5c(c4)OCO5)c3C)nc2C)cc1
 : 104, 108
10) O=S(=O)(Nc1cccc(-c2ccc(N3CCCC3)nn2)c1)c1ccc(F)cc1F
 : 102, 110
11) Cn1c(=O)n(Cc2c(F)cccc2Cl)c(=O)c2c1nc1n2CCN1c1ccc(F)cc1
 : 113, 108
12) O=C(CSc1oc(-c2ccccc2)nc1S(=O)(=O)c1ccccc1)c1ccccc1
 : 101, 102
13) COc1cccc(C2C(C(=O)Nc3ccccc3)=C(C)Nc3nc(-c4ccccc4)nn32)c1 (stereo not given)
 : 105, 104
14) COc1ccc(CC(=O)N2CCc3cc(OC)c(OC)cc3C2COc2cc(C)cc(C)c2)cc1OC (stereo not given)
 : 115, 112
15) Cc1cccc(CNC(=O)c2ccc(NC(=O)N3CCSc4ncccc43)cc2)c1
 : 109, 107
16) CCN(CC)S(=O)(=O)c1ccc(NC(=O)c2nn(C)c3c2CSc2ccccc2-3)cc1
 : 111, 117
17) Cc1nc2c(C(=O)NCCc3ccccc3)c[nH]n2c(=O)c1Cc1ccccc1F
 : 107, 110
18) COc1ccccc1C(=O)n1nc(-c2cccnc2)nc1NCc1ccccc1
 : 108, 114
19) CCCCN(C)CCCNC(=O)C1CCN(S(=O)(=O)CC)CC1
 : 108, 108
20) CCOC(=O)c1ccc(NC(=O)CC2C(=O)N(c3ccc(C)cc3)C(=O)N2C2CCCCC2)cc1 (stereo not given)
 : 106, 105

From compound 2 as far as 19, copied from above:
Value order: PV pol inh, PV pol inh intensity
2) CC(C)(C)OC(=O)N1CCC(c2c(C(=O)NCCN3CCOCC3)cnn2-c2ccc(F)cc2F)CC1
 : 108, 108
3) CCC(=O)N1CCc2cc(S(=O)(=O)NC(C(=O)NCCc3ccc(Cl)cc3)C(C)C)ccc21 (stereo not given)
 : 108, 107
4) Cc1ccc(CCNC(=O)c2ccc(CS(=O)(=O)c3ccc(Cl)cc3)o2)cc1
 : 108, 100
5) O=C(c1ccc(CS(=O)c2ccccc2Cl)o1)N1CCN(c2cccc(C(F)(F)F)c2)CC1 (stereo not given)
 : 105, 106
6) CCOC(=O)C1CCN(c2cc3c(cc2NC(=O)c2ccccc2Cl)n(C)c(=O)n3C)CC1
 : 104, 106
7) Cc1ccc(-n2nc(C(=O)Nc3ccc(F)cc3F)c3c4ccccc4n(C)c3c2=O)cc1
 : 104, 107
8) Cc1ccc2c(c1)-c1nc(-c3ccc4c(c3)NC(=O)CO4)cc(-c3ccc(F)cc3)c1CO2
 : 110, 111
9) CC(=O)c1ccc(NC(=O)c2sc(-n3nc(C)c(Cc4ccc5c(c4)OCO5)c3C)nc2C)cc1
 : 104, 108
10) O=S(=O)(Nc1cccc(-c2ccc(N3CCCC3)nn2)c1)c1ccc(F)cc1F
 : 102, 110
11) Cn1c(=O)n(Cc2c(F)cccc2Cl)c(=O)c2c1nc1n2CCN1c1ccc(F)cc1
 : 113, 108
12) O=C(CSc1oc(-c2ccccc2)nc1S(=O)(=O)c1ccccc1)c1ccccc1
 : 101, 102
13) COc1cccc(C2C(C(=O)Nc3ccccc3)=C(C)Nc3nc(-c4ccccc4)nn32)c1 (stereo not given)
 : 105, 104
14) COc1ccc(CC(=O)N2CCc3cc(OC)c(OC)cc3C2COc2cc(C)cc(C)c2)cc1OC (stereo not given)
 : 115, 112
15) Cc1cccc(CNC(=O)c2ccc(NC(=O)N3CCSc4ncccc43)cc2)c1
 : 109, 107
16) CCN(CC)S(=O)(=O)c1ccc(NC(=O)c2nn(C)c3c2CSc2ccccc2-3)cc1
 : 111, 117
17) Cc1nc2c(C(=O)NCCc3ccccc3)c[nH]n2c(=O)c1Cc1ccccc1F
 : 107, 110
18) COc1ccccc1C(=O)n1nc(-c2cccnc2)nc1NCc1ccccc1
 : 108, 114
19) CCCCN(C)CCCNC(=O)C1CCN(S(=O)(=O)CC)CC1
 : 108, 108

The results go on:
Value order: PV pol inh, PV pol inh intensity
21) CCc1ccc(N2C(=O)CC(c3cc(OC)ccc3OC)C3=C2COC3=O)cc1 (stereo not given)
 : 104, 110
22) Cc1ccc(-c2nc(-c3cc4c([nH]c3=O)CC(C)(C)CC4=O)sc2C)cc1
 : 113, 121
23) Clc1ccc(-c2ccc(CNCCSc3nnnn3-c3ccccc3)o2)cc1
 : 110, 105
24) CCOC(=O)c1ccc(NC(=O)C(Cc2ccccc2)NS(=O)(=O)c2ccc(Br)s2)cc1 (stereo not given)
 : 107, 107
25) Cc1ccc(N2CC(C(=O)Nc3ccc(Cl)cc3Cl)CC2=O)cc1 (stereo not given)
 : 108, 108
26) COC(=O)c1ccc2c(=O)n(CCCCCC(=O)NCc3ccc(Cl)cc3)c(=O)[nH]c2c1
 : 99, 103
27) COc1cccc(-n2c(/C=C\c3ccc(Cl)cc3)nc3ccccc3c2=O)c1
 : 105, 108
28) Cc1ccc(S(=O)(=O)Nc2cc3c(cc2Cl)n(C)c(=O)c(=O)n3C)cc1
 : 104, 104
29) CCC(Sc1nc2cc(OC)c(OC)cc2c(=O)n1Cc1ccc(Cl)cc1)C(=O)NCCOC (stereo not given)
 : 109, 112
30) Cc1cc(C)nc(-n2nc(C)c3c2NC(=O)CC3c2ccccc2OC(C)C)n1 (stereo not given)
 : 107, 108
31) COc1ccc(C(=O)COC(=O)c2cccc(NC(=O)c3ccc(OC)c(OC)c3)c2)cc1
 : 107, 107
32) CCN(C(=O)c1cc2c(=O)oc3ccccc3c2s1)c1ccc(C)c(C)c1
 : 104, 106
33) Cc1c(C(N)=O)nnn1-c1ccc(Br)cc1
 : 114, 114
34) CCC(Oc1ccccc1)C(=O)Nc1cc(-c2cccc(C)c2)nn1-c1ccccc1 (stereo not given)
 : 113, 111
35) COc1cc(NC(=O)Cn2ccc3ccccc3c2=O)cc(OC)c1OC
 : 103, 110
36) COc1cccc2cc(-c3nc4sc5c(c4c(=O)[nH]3)CCC(C(C)(C)C)C5)c(=O)oc12 (stereo not given)
 : 100, 108
37) O=C(Cc1ccccc1)N(Cc1cccnc1)c1nc2ccc(Cl)cc2s1
 : 102, 104
38) CCC1CN(C(=O)N2CCC(C(=O)NCCc3cc(OC)ccc3OC)CC2)c2ccccc2O1 (stereo not given)
 : 101, 105
39) CNS(=O)(=O)c1cn(CC(=O)Nc2ccc(F)cc2F)cc1S(=O)(=O)NC
 : 100, 105
40) CC(C)NC(=O)c1ccc(CSc2nc3ccncc3n2Cc2cccc(F)c2)cc1
 : 109, 107
41) COc1ccc2oc(-c3ccc(NC(=O)c4ccc(Cl)cc4Cl)cc3)nc2c1
 : 106, 110
42) CCOc1ccc(NC(=O)C(=O)NCCc2sc(-c3ccc(C)cc3)nc2C)cc1
 : 111, 116
43) COc1ccc(Cl)cc1NC(=O)c1cc2ccc3ccc(C)[nH]c3c2n1
 : 101, 101
44) O=c1c2sc3ccccc3c2n(Cc2ccccc2F)c(=O)n1-c1ccccc1Cl
 : 103, 107
45) CCCNC(=O)N1[C@H](c2cccs2)[C@@H](C)C(=O)[C@@H](C)[C@@H]1c1cccs1
 : 114, 109
46) CCn1cc(C(=O)N(C)Cc2ccccc2)c(=O)c2cc(S(=O)(=O)N3CCCCC3)ccc21
 : 106, 109
47) Oc1c(C(c2ccc(Cl)cc2Cl)N2CCCC2)sc2nc(-c3ccco3)nn12 (stereo not given)
 : 102, 109
48) CCCN(c1ccccc1F)S(=O)(=O)c1cc(-c2cc(C)no2)ccc1C
 : 111, 116
49) Cc1ccc(-n2nc(C(=O)N3CCN(c4cccc(C(F)(F)F)c4)CC3)c3c4ccccc4n(C)c3c2=O)cc1
 : 106, 107
50) Cc1cccc(OCC(=O)OCc2cc(=O)n3nc(C4CC4)sc3n2)c1
 : 112, 121
51) CCCNc1ccc(-c2nc(-c3ccncc3)no2)cc1[N+](=O)[O-]
 : 106, 113
52) CC(=O)Nc1ccc(-n2c(CCC(=O)O)ccc2-c2ccc(Br)cc2)cc1
 : 102, 104
53) COc1ccc(Cn2ccc3nc(C)c(C(=O)NCc4cccc(OC)c4)cc3c2=O)cc1
 : 108, 114
54) COc1ccc(Nc2nc(C)nc(N)c2S(=O)(=O)c2ccccc2)cc1
 : 107, 111
55) CCOc1ccc(C(=O)Nc2cc(-c3nc4ccccc4o3)ccc2C)cc1Cl
 : 104, 103
56) CCOC(=O)N[C@H](Cc1c[nH]c2ccccc12)C(=O)Nc1cccc(Cl)c1
 : 115, 111
57) COc1ccc(NC(=O)CCNS(=O)(=O)c2ccc3c(c2)CCCC(=O)N3)cc1
 : 101, 106
58) COc1cc2nc(NCCc3ccc(Cl)cc3)n3nc(-c4ccccc4)nc3c2cc1OC
 : 102, 104
59) O=C1CCCc2cc(S(=O)(=O)N3CCCC(C(=O)NCc4ccc(Cl)cc4)C3)ccc2N1 (stereo not given)
 : 104, 102
60) CCCCN(CC)CCCNC(=O)Cn1ncc2c3ccccc3n(Cc3ccccc3F)c2c1=O
 : 108, 111
61) O=C(Nc1cc(F)ccc1F)c1cc2nc(-c3ccco3)cc(C(F)(F)Cl)n2n1
 : 107, 111
62) Clc1cccc(-n2ncc3c(N4CCCCCC4)ncnc32)c1
 : 111, 117
63) COc1cc2ncc3c(-c4ccc(C)cc4)nn(-c4ccc(F)cc4F)c3c2cc1OC
 : 108, 107
64) CCn1c(NCc2ccc(OC)c(OC)c2)nc2ccccc21
 : 105, 106
65) COc1ccccc1N1CCN(c2ncnc3onc(-c4ccc(F)cc4)c23)CC1
 : 103, 111
66) O=C(Cn1c(=O)oc2cc(S(=O)(=O)N3CCCCCC3)ccc21)Nc1ccc(F)cc1F
 : 106, 109
67) CCOc1ccc(C(=O)Nc2cccc(OCc3cc(=O)n4ccccc4n3)c2)cc1
 : 102, 98
68) Cc1ccccc1CCNC(=O)c1ccc2c(c1)nc1n2CCOC1
 : 108, 104
69) CCC1CCCCN1CC(=O)N1CCCc2c1c(=O)oc1ccc(OCc3ccccc3)cc21 (stereo not given)
 : 100, 101
70) CCCN1CCN(CCCNC(=O)Cn2c(-c3cccs3)cc3ccccc32)CC1
 : 107, 111

(list continues)
Value order: PV pol inh, PV pol inh intensity
71) O=C(O)c1cccc(NC(=O)c2cc3cc(Br)cc(Br)c3oc2=O)c1
 : 99, 107
72) Cc1ccc(NC(=O)CSc2nc(=O)cc(N)n2CCc2ccccc2)cc1
 : 101, 105
73) CCc1ccccc1NC(=O)Cn1nc(C(F)(F)F)c2c1CCC2
 : 106, 107
74) CN(Cc1ccccc1)C(=O)Cn1c(=O)c2cccn2c2ccc(F)cc21
 : 105, 105
75) COc1ccc(CCNC(=O)Cn2nc(C)n3c(cc4cc(F)ccc43)c2=O)cc1OC
 : 114, 107
76) COc1cccc(CNC(=O)c2cc(-c3cccc(OC)c3)n[nH]2)c1
 : 111, 114
77) COc1ccc(-c2nc(SCC(=O)NCCc3ccc(OC)c(OC)c3)n[nH]2)cc1
 : 105, 105
78) Cc1ccc2nc(NC(=O)c3cccn(Cc4ccc(Cl)cc4)c3=O)sc2c1
 : 110, 113
79) COc1ccccc1C(=O)Nc1sc(Nc2ccccc2)nc1C(N)=O
 : 111, 104
80) CCCCOc1ccc(-c2nn(-c3ccccc3)cc2C2NC(=O)NC(C)=C2C(=O)OCC)cc1 (stereo not given)
 : 105, 108

The last 3 compounds of the section above come first, to join the parts.
Value order: PV pol inh, PV pol inh intensity
78) Cc1ccc2nc(NC(=O)c3cccn(Cc4ccc(Cl)cc4)c3=O)sc2c1
 : 110, 113
79) COc1ccccc1C(=O)Nc1sc(Nc2ccccc2)nc1C(N)=O
 : 111, 104
80) CCCCOc1ccc(-c2nn(-c3ccccc3)cc2C2NC(=O)NC(C)=C2C(=O)OCC)cc1 (stereo not given)
 : 105, 108
81) Cc1ccc2nc(NC(=O)CSc3nccn3Cc3ccccc3)sc2c1
 : 102, 109
82) COc1cccc(C(=O)Nc2ccc(-n3nncc3-c3ccccc3)cc2)c1OC
 : 107, 98
83) Cc1cc(Br)ccc1NC(=O)Cn1cc(S(=O)(=O)N2CCN(c3ccccc3F)CC2)c2ccccc2c1=O
 : 110, 108
84) CCc1cccc(NC(=O)C2CCCN2S(=O)(=O)c2ccc3nc(-c4ccccc4)[nH]c3c2)c1 (stereo not given)
 : 106, 107
85) COc1ccccc1-c1cc(C(F)(F)F)nc(S(=O)(=O)CCCC(=O)Nc2cc(OC)c(OC)c(OC)c2)n1
 : 102, 96
86) Cc1ccc(NC(=O)Cc2ccc(NC(=O)N3CCCCc4ccccc43)cc2)cc1Cl
 : 104, 105
87) CCc1cc(=O)[nH]c(SCc2nc(-c3ccccc3C)no2)n1
 : 110, 110
88) Cc1nn(-c2ccc(N3CCCC3)nn2)c(C)c1CCC(=O)NCc1ccc(OC(C)C)cc1
 : 105, 110

High-throughput results: PubChem, ICCB-Longwood Screening Facility, Harvard Medical School
